High-throughput results: PubChem, National Center for Advancing Translational Sciences (NCATS)
ClpP mod = qHTS Assay for Activators of ClpP; ATP-dependent Clp protease proteolytic subunit (Bacillus subtilis (strain 168)), P80244; purified B. subtilis ClpP, FRET peptide cleavage, 20 min; Potency, µM (doses to about 57.5 µM), without a hit: at the highest dose activity change, negative = active; 1.9% of 340,000 active; active = well fitted falling curve with a large enough effect; inconclusive = small, poorly fitted or top-dose-only effect; inactive = no such curve, though single readings can be large or run the other way; note: potency is the fitted concentration of half-maximal effect; the source files actives as falling curves though it sought activators and does not explain the sign; nearly all actives have a fitted effect of over 65% in size; many hits overshoot -100%
Target sequence (P80244 whole entry, looked up): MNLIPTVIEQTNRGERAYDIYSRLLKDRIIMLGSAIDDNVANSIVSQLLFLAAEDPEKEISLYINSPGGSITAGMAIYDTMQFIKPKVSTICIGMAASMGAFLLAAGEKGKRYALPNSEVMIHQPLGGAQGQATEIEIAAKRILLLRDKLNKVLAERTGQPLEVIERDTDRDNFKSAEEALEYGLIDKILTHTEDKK
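Purified B. subtilis ClpP, 10 microg/mL final in Tris/HCl pH8 with KCl, BSA, glycerol and Tween-20, cleaved an Abz/nitrotyrosine-quenched decapeptide. Fluorescence (ex 320, em 430) was read at 0 and 20 min at room temperature. Delta was normalized to 5.8 microM ADEP and DMSO/no-enzyme controls.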
TRPML1 blocker = qHTS for Inhibitors of the Human Mucolipin Transient Receptor Potential 1 (TRPML1); TRPML1-inducible cells, Ca2+ dye fluorescence, FDSS; stronger effect = lower value; inhibition of EC80 agonist-evoked calcium signal; 0.02% of 390,000 active; activity change, negative = inhibition, % (test concentration not listed); in the data active means activity change below about -50%; inconclusive means about -30% to -50%; inactive means above about -30%;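 note: stimulus is agonist 54-4 at its EC80 concentration; % is set by controls: 0 for no effect and ±100 for the full control effect; compound concentration not given in the record; the text of the record puts the active cut at -80%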
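Calcium fluorescence in TRPML1-DL cells induced overnight with Tet: a 110 s read after compound pin addition, then a 110 s antagonist read after challenge with 54-4 at 4 uM final (EC80).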
PINK1 expr mod = A Quantitative High throughput Screen to Identify Chemical Modulators of PINK1 Expression; PINK1 immunofluorescence, high-content cytometry, 24 h; 0.2% of 410,000 active; AID 624263, 2012; Potency, µM (titrated, usually from 76.6 µM), without a hit: at the highest dose activation (PINK1 increase), hits mostly activators; active = well fitted activation curve with a large enough effect; inconclusive = small, poorly fitted or top-dose-only effect; inactive = flat fitted curve, though single readings scatter; cell line not stated here;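 note: potency is the fitted concentration of half-maximal effect; % of control where 0% means no effect; nearly all actives have a fitted effect of over 65% in size; a mitochondrial uncoupler was the plate control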
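Decision-based qHTS: stable cells, 24 h exposure to five compound concentrations, CCCP as control. Fixed cells stained for PINK1 plus nuclear, mitochondrial and cell markers, cytometer read.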
Sfp PPTase inh = qHTS Assay for Inhibitors of Bacillus subtilis Sfp phosphopantetheinyl transferase (PPTase) | 4'-phosphopantetheinyl transferase ffp (Bacillus subtilis), Q9F4F7 | Biochemical Sfp PPTase activity, qHTS | Potency, µM, inactives show max response, negative = inhibition, usual class: inhibitors | 3.5% of 310,000 active | AID 1490, 2009; active = well fitted inhibition curve with a large enough effect; inconclusive = small, poorly fitted or top-dose-only effect, or another doubt; inactive = no such curve, though single readings can be large or run the other way;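 note: the enzyme is Sfp with the accession as filed and its product quenches rhodamine fluorescence; potency is the fitted concentration of half-maximal effect; 0% = enzyme reaction without inhibitor and -100% = no enzyme wells; top concentration of the series not given in the record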
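Sfp 15 nM + cpd, 15 min RT; start w/ rhodamine-CoA 5 uM, BHQ-2-YbbR 12.5 uM (final); 50 mM Hepes pH 7.6, 10 mM MgCl2, 0.01% NP-40, 0.01% BSA; read 525/598 nm at 0 and 30 min.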
TRPML1 agonist = qHTS for Agonists of the Human Mucolipin Transient Receptor Potential 1 (TRPML1) | activation, % (test concentration not listed) | Mucolipin-1 (Homo sapiens), Q9GZU1 | TRPML1-expressing cells, Ca2+ dye fluorescence, FDSS; host cell line not named in the record; reference of the full effect not given here | 0.12% of 410,000 active; in the data active = activation above about 50%; inconclusive = about 30% to 50%; inactive = below about 30%; note: 0% is about no effect; the text of the record puts the active cut at 80%
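Tetracycline-induced TRPML1-DL cells are seeded and incubated overnight before loading with a no-wash Ca2+ dye and quencher. Agonist activity is taken from the 110 s fluorescence read following compound pin-transfer on an FDSS, before EC80 54-4 challenge.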
Menin-MLL FL inh = qHTS Assay for Inhibitors Targeting the Menin-MLL Interaction in MLL Related Leukemias: Competition With Fluorescein Labeled MLL-derived Peptide. Fluorescence polarization, fluorescein-MLL peptide displacement from menin. 290,000 tested, under 10 active. AID 1766, 2009. FP activity change, % at 61.4 µM; inconclusive = falling polarisation curve, or a change in total fluorescence; inactive = total fluorescence flat and polarisation flat or rising; no compound was filed as active; the % refers to the polarisation; negative = inhibition;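 note: % of control where 0% means no effect; inhibitors lower the polarisation; unlabelled MLL peptide was the positive control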
TRPV1 PAM = HTS Assay for Compounds that Act as Potentiators of the Vanilloid Receptor 1; Transient receptor potential cation channel subfamily V member 1 (Homo sapiens), Q8NER1; TRPV1-expressing cells, Fluo-8 calcium influx, capsaicin EC20 potentiation; host cell line not named in the record; control for the full effect not named in the record; potentiation, % at 8.33 µM; 0.02% of 320,000 active; AID 540277, 2011; active means potentiation above 80%; inconclusive means 30% to 80%; inactive means below 30%; note: 0% is about no effect
Target sequence (Q8NER1 whole entry, looked up): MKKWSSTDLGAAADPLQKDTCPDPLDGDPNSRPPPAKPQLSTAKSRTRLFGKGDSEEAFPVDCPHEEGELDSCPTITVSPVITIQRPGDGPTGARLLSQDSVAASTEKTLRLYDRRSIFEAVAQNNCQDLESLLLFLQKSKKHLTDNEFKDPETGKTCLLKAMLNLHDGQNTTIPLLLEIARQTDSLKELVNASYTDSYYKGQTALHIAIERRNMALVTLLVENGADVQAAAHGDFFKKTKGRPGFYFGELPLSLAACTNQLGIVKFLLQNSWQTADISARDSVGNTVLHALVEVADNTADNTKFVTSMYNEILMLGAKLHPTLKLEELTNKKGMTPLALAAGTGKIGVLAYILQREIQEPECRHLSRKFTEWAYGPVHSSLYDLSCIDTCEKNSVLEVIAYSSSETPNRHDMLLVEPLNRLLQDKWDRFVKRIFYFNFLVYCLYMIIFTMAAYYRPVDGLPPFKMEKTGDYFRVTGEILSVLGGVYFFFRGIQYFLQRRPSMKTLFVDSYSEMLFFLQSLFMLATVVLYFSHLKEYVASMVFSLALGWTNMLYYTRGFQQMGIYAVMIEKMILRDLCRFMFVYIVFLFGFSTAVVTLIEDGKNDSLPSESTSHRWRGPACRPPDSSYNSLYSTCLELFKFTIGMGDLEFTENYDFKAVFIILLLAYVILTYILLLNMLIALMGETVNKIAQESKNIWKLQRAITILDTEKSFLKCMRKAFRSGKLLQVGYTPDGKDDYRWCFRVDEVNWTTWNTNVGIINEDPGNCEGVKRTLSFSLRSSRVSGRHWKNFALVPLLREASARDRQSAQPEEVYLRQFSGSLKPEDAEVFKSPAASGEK
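TRPV1-expressing cells were cultured overnight at 35.5C and loaded with Fluo-8 calcium dye for 40 to 90 min at room temperature. After a 10 s baseline, compound was added and calcium influx was read kinetically for 3 min (ex 480/em 520 nm).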
Numbers without * were called inactive; ? = inconclusive; / = not tested or not shown; & = joins results of further samples; [ ] = another dose, or the depositor's remark.

SMILES	ClpP mod	TRPML1 blocker	PINK1 expr mod	Sfp PPTase inh	TRPML1 agonist	Menin-MLL FL inh	TRPV1 PAM
CCOc1ccc(NC(=O)CCSc2ccc3ccccc3n2)cc1	-2.1%	-15	0.6%	-26%	-0.1	0.5	?
CCC1(c2ccccc2)NC(=O)N(CC(=O)N(c2ccccc2)C2CCS(=O)(=O)C2)C1=O (configuration not stated)	4.1%	9	-2.6%	/	-0.1	/	/
Cc1ccc(Nc2nc(C)cc(C)c2C(N)=O)c(C)c1	0.0%	/	4.1%	6%	/	-4.6	-10
COCCN(Cc1nc(C(c2ccccc2)c2ccccc2)no1)C(C)C	/	4	-0.3%	-5%	0.5	3.3	-3
C/C(=N\Nc1nc(-c2ccc(C)cc2)nc2ccccc12)c1ccc([N+](=O)[O-])cc1	/	/	/	4%	/	0.0	8
COc1ccc(C2=NN(c3nc4ccccc4s3)C(=O)C2)cc1	/	-10	-1.2%	-5%	1.5	?	1
C(=C\c1ccnc2ccccc12)/c1ccc2c(c1)OCO2	-20%	/	-0.4%	/	-0.9	/	/
O=S(=O)(Nc1cccc(-c2ccc(N3CCCCCC3)nn2)c1)c1ccccc1F	-1.2%&-2.7%	-14&-23	-1.2%&-0.6%	-5%	-0.5&-1.1	-3.3	-7
Nc1ccc(C(=O)N/N=C/c2ccc(N3CCOCC3)s2)cc1	-1.0%	-11	0.3%	/	-1.1	/	/
COc1ccc(C(=O)NCC23C=CC(O2)C2C(=O)N(Cc4ccccc4)C(=O)C23)cc1 (configuration not stated)	-0.8%	4	-1.4%	?	0.6	1.7	3
O=C(NCCCN1CCOCC1)c1cc2c(s1)CSC2	-26%	-4	14%[38.3 µM]	-5%	-0.1	10	6
COc1cc2c(-c3ccc4[nH]ccc4c3)c(-c3ccc(C#N)cc3)oc(=O)c2cc1OC	4.4%	-7	-0.2%	/	-0.4	/	7
COc1ccc2c(CSc3nc4nc(C)cc(C)n4n3)cc(=O)oc2c1	-6.3%	?	-1.6%	7%	-0.7	8.4	-3
CCOc1ccc(N2CC(C(=O)NCCN3C(=O)S/C(=C/c4cccnc4)C3=O)CC2=O)cc1 (configuration not stated)	1.2%	-2	2.5%	/	1.2	/	21
CC1CCCC(NC(=O)C2CCN(S(=O)(=O)N3CCOCC3)CC2)C1C (configuration not stated)	-0.4%	12	?	0%	0.3	-2.1	23
COc1ccc(C(=O)Nc2cccc([N+](=O)[O-])c2)cc1Br	0.4%	-13	8.3%	/	-1.1	/	/
Cc1ccc(OCc2nc(C#N)c(NCCCn3ccnc3)o2)cc1	-1.8%	7	-0.6%	17%	-0.8	-3.5	-16
COc1ccc(SCCC(=O)NCc2ccncc2)cc1	-3.1%	25	2.2%	2%	0.6	1.4	/
Cc1ccc(-n2ncc(C(=O)NCCN3CCOCC3)c2C2CCN(C(=O)OC(C)(C)C)CC2)c(C)c1	-1.0%	1	0.2%	/	1.3	/	/
N#CCC(=O)Nc1ccc(C(=O)NCCc2c[nH]c3ccccc23)cc1	/	4	2.3%	7%	1.3	/	6
CC(=O)COc1cc(C)cc2oc(=O)c(C)c(C)c12	?	11	3.7%	14%	-0.9	0.6	10
Cc1cn2c(=O)c(S(=O)(=O)N3CCN(c4cc(Cl)ccc4C)CC3)c(C)nc2s1	-5.5%	-22	-0.3%	/	-0.5	/	/
CCN(CC)S(=O)(=O)c1cccc(NC(=O)COC(=O)c2cccs2)c1	/	-14	1.8%	12%	-0.8	-1.1	0
O=C(c1ccccc1)N1c2nc(-c3ccco3)nn2C2(CCCCC2)[C@@H]2CCCC[C@@H]21	-0.6%	11	1.2%	/	3.0	/	/
CCCc1nc2c(c(=O)c3ccccc3n2C)c(=O)n1C1CCCCCC1	-7.1%	17	2.1%	13%	30	2.7	26
SMILES	ClpP mod	TRPML1 blocker	PINK1 expr mod	Sfp PPTase inh	TRPML1 agonist	Menin-MLL FL inh	TRPV1 PAM
Cc1nc(NC2=NCN(CCCN3CCOCC3)CN2)nc2c(C)cccc12	3.9%	2	-1.7%	-3%	0.3	5.6	-19
COc1ccc(CNC(=O)CN(c2ccc(OC)cc2)S(=O)(=O)c2c(C)nn(C)c2C)cc1	0.3%	-6	5.1%	0%	-0.3	3.0	11
c1ccc2c(c1)NC1(CCCC1)n1c-2nc2ccccc21	-23%	-5	/	1%	-0.1	0.6	3
C=CCc1ccc(OCCCCNC2CCCC2)c(OC)c1	/	11	5.7%	-5%	7.7	-0.3	-8
Cc1ccc(CNC(=O)c2ccc3c(c2)NC(=O)C(CS(=O)(=O)Cc2ccc(F)cc2)N3)cc1 (configuration not stated)	-9.1%	-5	-1.2%	/	-0.5	/	/
O=C(CSc1nnnn1-c1ccc(O)cc1)c1ccc(F)cc1	-0.3%	-6	2.9%	-26%	-0.8	3.0	-6
COc1ccc(C(=O)NCC(=O)NCC(c2ccco2)N(C)C)cc1OC (configuration not stated)	?	-8	0.1%	-8%	0.0	-5.4	-13
O=C(Nc1ccc(N2CCCC2)cc1)c1ccccc1F	-1.6%	5	0.4%[38.3 µM]	?	0.5	2.2	-15
COc1ccc(C=C2NC(=S)NC2=O)cc1	/	-1	-1.7%	/	-0.9	/	/
Cn1nnc2c(N3CCN(c4cccc(Cl)c4)CC3)ncnc21	?	-7	1.7%	/	-0.3	/	/
O=C(NCC12CC3CC(CC(C3)C1)C2)c1cc2nc(-c3ccc(F)cc3)cc(C(F)(F)F)n2n1	-1.9%	-6	0.1%	/	-0.3	/	/
CCC1CCCCN1S(=O)(=O)c1ccc(NC(=O)C2CCN(C(=O)c3ccco3)CC2)cc1 (configuration not stated)	0.8%	-7	1.3%	2%	-1.3	/	8
Cc1cccn2cc(-c3cccc(S(=O)(=O)N4CC(C)OC(C)C4)c3)nc12 (configuration not stated)	-1.3%	-5	-0.3%	4%	0.9	/	2
CCOC(=O)c1c(C)sc(Sc2ccc(Cl)cc2[N+](=O)[O-])c1OC	-12%	46	1.8%	?	2.4	1.1	3
Cc1ccsc1C(=O)OCC(=O)NCc1cccs1	-1.0%	-8	-0.8%	/	-1.0	/	/
COc1ccc(CNC(=O)C(=O)Nc2c3c(nn2-c2ccccc2)CSC3)cc1	-4.4%	6	-0.7%	/	2.6	/	/
O=C(NCCn1ccc2ccccc21)c1ccc(Cl)cc1	-0.6%	-5	0.6%	/	-1.4	/	/
COc1ccc(-c2cc(=O)oc3cc4occ(C)c4cc23)cc1	-2.1%	-9	?	-8%	-0.2	1.0	5
CN(CC(=O)NCC(c1ccccc1)N1CCCC1)S(=O)(=O)c1ccc(Cl)cc1 (configuration not stated)	1.0%	6	-0.5%	/	4.9	/	-2
CSc1ncccc1C(=O)OCC(=O)c1cccc(Br)c1	/	0	1.6%	-8%	3.0	7.3	3
O=C1OC(c2ccco2)=N/C1=C\c1ccc(-c2cccc(C(F)(F)F)c2)o1	3.0%	-4	-0.1%	3%	0.0	18	20
O=C1C2C3C=CC(C3)C2C(=O)N1Nc1ccc([N+](=O)[O-])cc1[N+](=O)[O-] (configuration not stated)	-1.5%	24	-0.6%	12%	0.3	-3.4	22
CCC(CC)c1nnc(NC(=O)CN2C(=O)c3ccccc3C2=O)s1	/	8	3.8%	-10%	0.3	-4.0	13
COc1ccc(-c2cn3nc(N4CCC(C(=O)Nc5ccccc5OC)CC4)sc3n2)cc1	-2.1%	-24	-0.3%	/	-0.2	/	/
Cc1ccccc1/C=N/NC(=O)Cn1cnc([N+](=O)[O-])n1	-0.2%	3	1.2%	2%	-0.6	2.8	5
SMILES	ClpP mod	TRPML1 blocker	PINK1 expr mod	Sfp PPTase inh	TRPML1 agonist	Menin-MLL FL inh	TRPV1 PAM
Cc1cccc(C)c1NC(=O)CSc1nc2ncccc2o1	5.6%	-2	-0.5%	/	2.1	/	/
Cc1ccc(CCNC(=O)c2ccc(CNS(=O)(=O)c3ccc(C)cc3)cc2)cc1	1.6%	-8	-2.6%	/	2.0	/	/
Cc1ccc(NC(=O)CSc2nc3ccccc3c(=O)n2CCCC(=O)NCCCN2CCOCC2)cc1	/	-4	-1.2%	-19%	0.2	-0.6	-12
Cc1cc(NC(=O)c2ccc(Cl)cc2)ccc1NC(=O)c1ccccc1Cl	-0.8%	-7	4.3%	7%	2.8	-0.4	-11
CN(CCc1nc2ccccc2[nH]1)Cc1nc(CC2CC2)no1	-4.0%	8	-0.6%	20%	0.9	0.8	8
O=C(N[C@@H](Cc1ccccc1)C(=O)OCc1ccccc1)c1nc[nH]c1C(=O)N1CCN(c2ccccc2)CC1	-3.3%	-8	3.7%	1%	0.5	20	26
COCCN1C(=O)N[C@@H](CCc2ccccc2)[C@H](C(=O)OC)[C@H]1C	1.8%	?	-1.6%	12%	1.0	0.9[11.7 µM]	/
O=C1C=C(NCc2ccco2)CCC1	0.4%	-3	/	-5%	0.9	6.0	-3
Cc1ccc(-c2nnc3ccc(SCC(=O)OCc4ccccc4)nn23)cc1	4.0%	/	-0.2%	/	-0.7	/	/
CCn1nc(C(=O)OCc2cccc(S(=O)(=O)N(C)C)c2)c2ccccc2c1=O	0.3%	21	0.5%	7%	-0.2	1.5	-14
COCCNC(=O)C(=O)NCCN1CCOCC1	-0.9%	-4	2.2%	0%	0.2	1.9	0
O=S(=O)(Nc1cccc(-c2cn3c(n2)SCC3)c1)c1ccccc1	-0.9%	5	0.4%	-13%	-0.1	/	28
O=C(Nc1cccc(S(=O)(=O)N2CCOCC2)c1)C12CC3CC(CC(C3)C1)C2	32µM*	-6	18%	/	0.5	/	/
CCCc1cc(=O)n2nc(N3CCC(C(=O)NCc4ccc(C)o4)CC3)sc2n1	-0.4%	-21	-0.4%	5%	-0.1	/	-13
CN(C(=O)Cc1c(C(=O)O)n(C)c2ccccc12)c1ccc(F)cc1	/	4	0.1%	10%	-0.5	2.7	-5
